# PAFAH2 inh: inhibitors of human PAFAH2; Q99487; recombinant PAFAH2, FP-rhodamine activity probe, fluorescence polarization; inhibition, % at 3.39 µM; actives 0.99% (n = 340,000);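 active = inhibition above the mean over all tested compounds plus 3 SD, cut at about 30% in these data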;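 also: inhibitors block probe labeling of enzyme so polarization drops; 0% = enzyme with DMSO and 100% = wells lacking PAFAH2 protein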
# PAD4 inh: PAD4 (human) enzyme inhibition; Q9UM07; recombinant PAD4, RCA probe fluorescence polarization; inhibition, % at 6.36 µM; actives 0.41% (n = 330,000);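 active = percent inhibition above a cutoff equal to the mean of all tested compounds plus 3 SD, cut at about 15% in these data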;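 also: 0% = PAD4 with RCA probe and DMSO and 100% = probe without PAD4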
# LYPLA1 counter: blocks human lysophospholipase 1, a PME1 counter-screen. recombinant LYPLA1, FP-Rh probe fluorescence polarization. inhibition, % at 5.9 µM. actives 0.16% (n = 320,000). O75608. AID 2174;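 active = inhibition above the mean of all tested compounds plus 3 SD, set per campaign, cut at about 14% in these data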;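 also: inhibitors block serine hydrolase probe labeling of LYPLA1 so polarization falls; 0% = enzyme with DMSO and 100% = wells lacking LYPLA1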
# Target sequence (O75608 whole entry, looked up): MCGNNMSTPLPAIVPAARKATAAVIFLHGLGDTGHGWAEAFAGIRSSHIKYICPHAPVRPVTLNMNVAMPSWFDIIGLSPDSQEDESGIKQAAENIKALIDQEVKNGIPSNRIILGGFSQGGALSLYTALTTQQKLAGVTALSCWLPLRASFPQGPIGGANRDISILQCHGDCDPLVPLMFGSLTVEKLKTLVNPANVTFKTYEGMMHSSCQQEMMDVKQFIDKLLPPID
# LYPLA2 counter: LYPLA2 (human) inhibition in PME1 counter-screen. AID 2177. O95372. actives 0.38% (n = 320,000). inhibition, % at 5.9 µM. recombinant LYPLA2, FP-Rh probe fluorescence polarization;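 active = inhibition above the screen-wide mean plus 3 SD, limit set per campaign, cut at about 26% in these data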;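 also: 0% = LYPLA2 with DMSO and 100% = wells lacking LYPLA2 enzyme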
# Target sequence (O95372 whole entry, looked up): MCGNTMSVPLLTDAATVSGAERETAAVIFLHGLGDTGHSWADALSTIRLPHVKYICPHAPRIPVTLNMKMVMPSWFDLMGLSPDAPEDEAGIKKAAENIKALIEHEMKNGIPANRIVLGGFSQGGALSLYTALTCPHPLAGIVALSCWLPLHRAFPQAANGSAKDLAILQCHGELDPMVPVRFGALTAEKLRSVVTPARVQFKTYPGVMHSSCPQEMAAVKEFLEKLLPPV
# PAFAH1B3 inh: PAFAH1B3 (human) inhibition | recombinant PAFAH1B3, FP-rhodamine probe, fluorescence polarization | inhibition, % at 3.39 µM | Q15102 | actives 0.28% (n = 340,000);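 active = inhibition above the screen-wide average of all tested compounds plus 3 SD, cut at about 25% in these data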;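 also: 0% = enzyme with DMSO only and 100% = wells lacking PAFAH1B3 protein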
# Target sequence (Q15102 whole entry, looked up): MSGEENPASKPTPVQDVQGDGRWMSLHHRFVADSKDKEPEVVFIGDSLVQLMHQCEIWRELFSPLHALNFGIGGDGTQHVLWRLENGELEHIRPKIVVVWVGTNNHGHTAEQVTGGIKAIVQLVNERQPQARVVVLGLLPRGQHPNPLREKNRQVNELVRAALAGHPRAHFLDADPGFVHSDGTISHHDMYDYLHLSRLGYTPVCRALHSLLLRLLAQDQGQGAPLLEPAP
# * = called active by the depositor; · = not tested or not shown.
# Abbreviations: A = PAFAH2 inh; B = PAD4 inh; C = LYPLA1 counter; D = LYPLA2 counter; E = PAFAH1B3 inh
O=C(N/N=C1\CCCc2ccccc21)C(O)c1ccccc1 (stereo not drawn)
  A = -4.3 | B = -2.6 | C = 0.2 | D = -1.6 | E = 2.0

COc1ccc(CCN2CC(C(=O)NCc3ccc(F)cc3)CC2=O)cc1OC (stereo not drawn)
  A = -0.5 | B = -0.3 | C = 0.5 | D = -1.1 | E = -1.2

C1=C(c2ccccc2)Nc2ccccc2N=C1c1ccccc1
  A = -6.9 | B = -1.0 | C = 5.8 | D = 9.3 | E = -2.9

O=C(CSc1nc(O)cc(=O)[nH]1)N1c2ccccc2CCc2ccccc21
  A = -0.3 | B = -3.7 | C = 4.5 | D = 5.0 | E = 8.7

Cc1nn(-c2ccccc2)c(C)c1C(=O)NCc1ccccc1F
  A = -0.8 | B = 1.2 | C = 0.6 | D = 3.0 | E = 11.9

CC(C)(C)NC(=O)c1ccc2c3c(cccc13)CC2
  A = 1.4 | B = 2.5 | C = -3.7 | D = -7.8 | E = 3.4

Nn1c(SCC(=O)Nc2ccc(S(N)(=O)=O)cc2)nnc1C(F)(F)F
  A = 1.0 | B = -6.1 | C = 2.0 | D = 6.9 | E = 2.2

CC(C)NC(=O)CC(=O)NN=C1CCCCC1
  A = 2.1 | B = -7.0 | C = 1.4 | D = 1.4 | E = 0.8

C=CCNC(=O)c1onc(CCl)c1C(=O)OC
  A = -0.9 | B = 0.2 | C = -2.4 | D = 3.8 | E = 7.6

Cc1nn(-c2ccc(Cl)cc2)c2[nH]c(=O)c(CNCc3ccc4c(c3)OCO4)cc12
  A = -3.1 | B = -0.2 | C = 0.6 | D = -5.2 | E = 1.8

CN(Cc1ccccc1)C(=O)CCS(=O)(=O)c1cc2c(cc1Cl)NC(=O)CO2
  A = 0.0 | B = -1.3 | C = -0.5 | D = 3.9 | E = 1.6

CSCC[C@@H](C(=O)O)N1Cc2ccccc2C1=O
  A = -4.9 | B = 0.9 | C = 0.2 | D = -1.1 | E = 3.4

Cc1cc(C)c(S(=O)(=O)Nc2cccnc2)c(C)c1
  A = -4.6 | B = -2.5 | C = -3.5 | D = -8.3 | E = 1.7

O=C(CSCc1nc2c(nnn2Cc2ccc(F)cc2)c(=O)[nH]1)Nc1cccc(C(F)(F)F)c1
  A = -1.2 | B = -2.6 | C = -0.4 | D = 6.3 | E = 5.2

CC1CC1C(=O)OCC(=O)NC(=O)NCc1ccco1 (stereo not drawn)
  A = 0.7 | B = -1.3 | C = 0.0 | D = -1.7 | E = 5.2

CCn1c(COc2cccc(C)c2)nnc1SCC(=O)Nc1cccc(C(=O)O)c1
  A = 1.4 | B = -1.9 | C = 0.2 | D = 5.3 | E = 8.2

COc1ccc(S(=O)(=O)N2CCCCCC2)cc1N
  A = 2.0 | B = -0.7 | C = -2.7 | D = 1.3 | E = 8.7

O=C(NCc1ccc2c(c1)OCO2)c1cccc(N2CCCC2=O)c1
  A = 8.6 | B = 0.9 | C = -3.9 | D = -7.8 | E = 11.5

C=CCN(c1ccccc1)S(=O)(=O)c1cc2c(cc1C)NC(=O)CO2
  A = -4.1 | B = 3.0 | C = -0.3 | D = -6.0 | E = 0.6

CN(C)C(=O)c1ccc2c3c(cccc13)CC2
  A = 4.0 | B = -0.2 | C = -2.1 | D = 0.6 | E = -4.9

COc1ccc(S(=O)(=O)N2CCCCC2)cc1C(=O)N1CCCCCC1
  A = 4.0 | B = -3.3 | C = -4.4 | D = -4.2 | E = 3.2

C=CCSc1n[nH]c(-c2ccc(OC)cc2)n1
  A = 3.4 | B = -1.9 | C = -4.8 | D = -3.0 | E = 7.2

CN(Cc1nc2ccc(F)cc2[nH]1)Cc1c(C(=O)N(C)C)nc2ccc(Cl)cn12
  A = -5.3 | B = -5.0 | C = 0.5 | D = -0.3 | E = 9.4

COc1ccc(C2/C(=C(/O)c3ccccc3)C(=O)C(=O)N2C)cc1OC (stereo not drawn)
  A = 4.4 | B = -6.5 | C = 0.9 | D = 0.9 | E = 6.9

CCCN1CCN(C(=O)CCCNC(=O)Cn2cnc3sc(C)c(C)c3c2=O)CC1
  A = -3.4 | B = 1.3 | C = 0.0 | D = 2.5 | E = -1.2

COc1ccc(S(=O)(=O)Nc2nc3ccccc3nc2Nc2cccc(C(=O)O)c2)cc1
  A = 10.4 | B = -0.4 | C = 1.4 | D = 3.3 | E = 12.6

Cc1cc(-c2csc(NC(=O)c3ccc(C#N)cc3)n2)c(C)n1Cc1ccco1
  A = -10.1 | B = -7.8 | C = -5.1 | D = -8.5 | E = 5.1

Cc1cccc(NS(=O)(=O)c2ccc(-c3cnc(C4CC4)o3)cc2)c1C
  A = 6.9 | B = 1.9 | C = -3.2 | D = 10.1 | E = 4.0

COc1ccc(NC(=O)CN2CCCN(S(=O)(=O)c3ccc(F)cc3)CC2)c(OC)c1
  A = 6.6 | B = 2.3 | C = 3.0 | D = -1.9 | E = 1.7

COc1ccc(OC)c(-n2c(-c3cccc(O)c3)n[nH]c2=S)c1
  A = -10.6 | B = -2.1 | C = 1.7 | D = 5.8 | E = 3.0

Cc1cc(C)c(S(=O)(=O)Nc2cccc(-n3cnnn3)c2)c(C)c1
  A = 5.5 | B = -3.5 | C = -4.1 | D = -4.2 | E = 8.5

COc1ccc(C(=O)N2CCC(n3c(C)nc4cc(F)ccc43)CC2)cc1
  A = 9.4 | B = 0.5 | C = -0.9 | D = -0.5 | E = 17.4

O=[N+]([O-])c1cc(CN2CCN(c3cccc(C(F)(F)F)c3)CC2)c2cccnc2c1O
  A = · | B = -11.2 | C = 0.2 | D = 2.9 | E = ·

N#CCNC(=O)C1CC(=O)N(CCc2ccc(F)cc2)C1 (stereo not drawn)
  A = 9.3 | B = -0.3 | C = -2.2 | D = -6.5 | E = 11.7

COC(=O)C1=NN(c2cccc3ccccc23)C2C(=O)N(c3ccccc3OC)C(=O)C12 (stereo not drawn)
  A = · | B = -0.8 | C = -0.6 | D = 4.3 | E = ·

Cc1sc2ncn(CC(=O)NCCCC(=O)N3CCC(C(N)=O)CC3)c(=O)c2c1C
  A = 4.8 | B = -3.7 | C = 0.4 | D = 4.4 | E = -1.6

COc1ccc2cc3cc(C(=O)NCCCN4CCc5ccccc5C4)sc3nc2c1
  A = 5.9 | B = -3.6 | C = -9.3 | D = -13.8 | E = -1.6

CC(C(=O)N1CCOCC1)N1C(=O)c2ccccc2C1=O (stereo not drawn)
  A = 4.6 | B = 1.3 | C = -0.7 | D = 1.6 | E = 5.0

CCOc1cc(/C=N/Nc2ccc(C(=O)O)cc2)ccc1OC(=O)c1ccccc1C
  A = 21.7 | B = 3.1 | C = -4.1 | D = 10.0 | E = 19.6

O=C(NCCN1CCCCCC1)C1CC(=O)N(CCc2ccccc2)C1 (stereo not drawn)
  A = 1.3 | B = 0.6 | C = 1.2 | D = -2.4 | E = 0.9

S=c1[nH]nc(-c2ccccc2Cl)n1Cc1ccccc1
  A = 2.0 | B = -1.4 | C = 0.2 | D = -2.2 | E = -2.2

COc1ccc(S(=O)(=O)N2CCCCC2)cc1NC(=O)CCCOc1ccccc1
  A = -1.3 | B = 0.5 | C = 0.6 | D = 3.9 | E = 5.9

COc1ccc(Nc2oc(COc3ccc(Cl)cc3)nc2C#N)cc1
  A = 8.2 | B = -0.7 | C = -1.7 | D = -3.7 | E = 9.8

S=c1[nH]nc(-c2cccs2)n1/N=C/c1c(Cl)cccc1Cl
  A = 19.5 | B = 2.9 | C = 7.7 | D = 6.7 | E = 11.8

NC(=O)c1ccccc1OCc1cccc2ccccc12
  A = -0.2 | B = -6.6 | C = -2.6 | D = -6.8 | E = 2.4

COc1cc(C(=O)NCc2cccc3ccccc23)ccc1OCc1ccccc1
  A = -9.3 | B = 2.9 | C = -13.5 | D = -12.7 | E = -0.3

CCOC(=O)C1=C(COC(=O)CSc2ccc(Br)cc2)NC(=O)NC1C (stereo not drawn)
  A = 8.6 | B = -4.8 | C = -0.5 | D = 5.7 | E = 13.4

CCOc1ccc(NC(=O)CSc2nnc(Cn3cnc([N+](=O)[O-])n3)n2CC)cc1
  A = 8.9 | B = -5.8 | C = 4.4 | D = -2.7 | E = 5.8

N#CCCN(CCC#N)C(=O)c1ccc2c(c1)OCO2
  A = 3.6 | B = 0.0 | C = -0.2 | D = 4.4 | E = 10.7

COc1ccc(/C=C2/Sc3ccc(C(=O)N4CCOCC4)cc3NC2=O)cc1OC
  A = -0.1 | B = -3.9 | C = 5.0 | D = -4.9 | E = 4.6

# Arranged by heavy-atom count (descending): five of the compounds above
# Abbreviations: A = PAFAH2 inh; B = PAD4 inh; C = LYPLA1 counter; D = LYPLA2 counter; E = PAFAH1B3 inh
CCOc1ccc(NC(=O)CSc2nnc(Cn3cnc([N+](=O)[O-])n3)n2CC)cc1
  A = 8.9 | B = -5.8 | C = 4.4 | D = -2.7 | E = 5.8

CCOC(=O)C1=C(COC(=O)CSc2ccc(Br)cc2)NC(=O)NC1C (stereo not drawn)
  A = 8.6 | B = -4.8 | C = -0.5 | D = 5.7 | E = 13.4

COc1ccc(Nc2oc(COc3ccc(Cl)cc3)nc2C#N)cc1
  A = 8.2 | B = -0.7 | C = -1.7 | D = -3.7 | E = 9.8

NC(=O)c1ccccc1OCc1cccc2ccccc12
  A = -0.2 | B = -6.6 | C = -2.6 | D = -6.8 | E = 2.4

N#CCCN(CCC#N)C(=O)c1ccc2c(c1)OCO2
  A = 3.6 | B = 0.0 | C = -0.2 | D = 4.4 | E = 10.7

# Entries of single compounds, quoted from the list.
# COc1cc(C(=O)NCc2cccc3ccccc23)ccc1OCc1ccccc1 in the list: PAFAH2 inh = -9.3; PAD4 inh = 2.9; LYPLA1 counter = -13.5; LYPLA2 counter = -12.7; PAFAH1B3 inh = -0.3
# COc1ccc(S(=O)(=O)N2CCCCC2)cc1NC(=O)CCCOc1ccccc1 in the list: PAFAH2 inh = -1.3; PAD4 inh = 0.5; LYPLA1 counter = 0.6; LYPLA2 counter = 3.9; PAFAH1B3 inh = 5.9

# Going on with the list.
# Abbreviations: A = PAFAH2 inh; B = PAD4 inh; C = LYPLA1 counter; D = LYPLA2 counter; E = PAFAH1B3 inh
CN1C(=O)/C(=C/c2cccc(Cl)c2)Sc2ccc(C(=O)N3CCCC3)cc21
  A = · | B = -4.2 | C = -4.4 | D = 24.1 | E = ·

COc1ccc(C)cc1NC(=O)C1CC(=O)N(CCc2ccccc2)C1 (stereo not drawn)
  A = 0.1 | B = 0.7 | C = -2.8 | D = -8.5 | E = 3.5

Cc1oc2c(F)c(F)c(F)c(F)c2c1S(=O)(=O)Nc1cccc(C(F)(F)F)c1
  A = 14.9 | B = 1.4 | C = -4.3 | D = -2.8 | E = -2.5

CCN(CC)S(=O)(=O)c1cc(C(=O)n2cccn2)c(Cl)cc1Cl
  A = 4.4 | B = 3.5 | C = 0.6 | D = 2.3 | E = 0.2

Cc1ccc(OCc2nnc(SCC(=O)Nc3ccc4c(c3)OCCO4)n2Cc2ccco2)cc1
  A = 8.5 | B = -10.7 | C = 0.3 | D = 4.5 | E = -4.6

Cc1cc(C)c(S(=O)(=O)Nc2cccc(S(=O)(=O)N3CCOCC3)c2)c(C)c1
  A = -5.6 | B = -5.3 | C = -0.3 | D = -0.4 | E = 8.6

Cc1noc(C)c1S(=O)(=O)Nc1cccc(C(F)(F)F)c1
  A = 4.3 | B = -0.2 | C = -2.3 | D = 2.5 | E = 5.4

C/C(=N\NC(=O)c1ccc(NS(=O)(=O)c2cccs2)cc1)c1ccccn1
  A = · | B = 0.1 | C = 3.8 | D = 0.4 | E = ·

CC(=O)c1ccc(NC(=O)c2cnsn2)cc1
  A = -4.7 | B = 1.7 | C = 1.2 | D = 1.5 | E = 3.8

O=C(COC(=O)c1cc([N+](=O)[O-])ccc1NCCO)Nc1ccc2c(c1)OCO2
  A = 23.6 | B = 0.3 | C = 0.8 | D = 1.0 | E = -4.2

# Some of the compounds tested (hit frequency here may not be typical).
